ALR inh: blocks human ALR sulfhydryl oxidase activity. P55789. purified ALR, DTT oxidation, H2O2 HRP-luminol luminescence. inhibition, % (test concentration not listed). hit rate 3.8% among 290,000. AID 485317;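 active = mean and each replicate at 75% or more; inconclusive = only one of the two met; inactive = neither met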;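 note: stock transfer was 7.5 nL into about 7.5 µL; 0% = neutral wells and 100% = wells with inactivated enzyme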
Target sequence (P55789 whole entry, looked up): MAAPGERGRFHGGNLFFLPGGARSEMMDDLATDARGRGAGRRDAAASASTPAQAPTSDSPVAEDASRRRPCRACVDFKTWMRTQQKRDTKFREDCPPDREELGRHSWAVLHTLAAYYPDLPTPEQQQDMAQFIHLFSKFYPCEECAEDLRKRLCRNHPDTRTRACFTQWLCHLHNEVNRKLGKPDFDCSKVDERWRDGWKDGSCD
Vif A3G: inhibitors of Vif binding to APOBEC3G peptide, primary screen, biochemical, TR-FRET, GST-Vif 1-94, biotin-A3G peptide, dose response retest (AID 1117319); TR-FRET GST-Vif / biotin-A3G peptide binding; higher % means a stronger effect; test concentration not given here; strong numbers were not always called active; one-dose inhibition, %; IC50 in µM for titrated hits; hit rate 0.57% among 260,000;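 active = above the screen mean plus three standard deviations and confirmed in dose response; inconclusive = results disagree or hit not tested in dose response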;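 note: Vif residues 1-94 fused to GST binding biotinylated APOBEC3G peptide 110-148; 0% = full assay without inhibitor and 100% = GST in place of GST-Vif; retest series ran down from 100 µM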
FGF22 binding: shifts melting point of recombinant human FGF22. hit rate 1.5% among 340,000. calls only at 9.99 µM. recombinant FGF22 thermal shift, SYPRO orange fluorescence; percent of sucrose octasulfate shift, DMSO zero. AID 651658;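 active = melting point raised past a set limit in the mean and every replicate; inconclusive = no clear call; three in four hits are not shown here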
Target sequence (Q9HCT0 whole entry, looked up): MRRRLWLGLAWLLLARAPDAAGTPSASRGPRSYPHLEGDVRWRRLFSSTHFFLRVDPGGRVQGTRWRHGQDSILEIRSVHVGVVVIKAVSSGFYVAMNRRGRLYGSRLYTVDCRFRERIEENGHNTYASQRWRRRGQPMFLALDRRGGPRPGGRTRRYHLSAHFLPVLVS
rRNA inh HTS: inhibits bacterial ribosomal RNA function over humanized ribosomes. E. coli WT GFP vs humanized-ribosome RFP mutants, fluorescence, 24 h; hits give low values; DMSO median 0, no signal -100. GFP signal change (wild-type ribosome), % (concentration not given with the values). hit rate 1.6% among 350,000;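 active = significant combined selectivity score with lowered wild-type GFP, culture density cut under 30%, mutant RFP and density less affected; inactive = any of these conditions unmet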; note: one replicate is shown; some compounds called inactive have numbers as strong as hits
MLL AF4-AF9 inh: MLL-AF4/AF9 protein interaction inhibition; P42568; inhibition, % at 10 µM; AlphaScreen, biotin-AF4 peptide binding to FLAG-AF9; hit rate 0.47% among 350,000;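 active = every replicate reaching a set inhibition limit, whatever the replicate mean, cut at about 25% in these data; inconclusive = mean inhibition reaches that limit but some replicates miss it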;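 note: 0% = plate neutral control median and 100% = total signal loss; the record names both 10 and 1 µM as test concentration; the first replicate is given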
HNF4A DNA FP: change in binding of human HNF4 alpha to DNA; P41235; HNF4a-FITC DNA binding, fluorescence polarization, 1 h; hit rate 0.3% among 360,000; activity change, % at 10 µM; in the data active = activity change above about 30%, passing the limit was not always enough;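 note: controls were the assay level and a saturating level of protein; the project sought stronger binding though the title names inhibitors; some compounds called inactive have numbers as strong as hits; positive values seem to mean higher polarization but the record does not say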
Target sequence (P41235 whole entry, looked up): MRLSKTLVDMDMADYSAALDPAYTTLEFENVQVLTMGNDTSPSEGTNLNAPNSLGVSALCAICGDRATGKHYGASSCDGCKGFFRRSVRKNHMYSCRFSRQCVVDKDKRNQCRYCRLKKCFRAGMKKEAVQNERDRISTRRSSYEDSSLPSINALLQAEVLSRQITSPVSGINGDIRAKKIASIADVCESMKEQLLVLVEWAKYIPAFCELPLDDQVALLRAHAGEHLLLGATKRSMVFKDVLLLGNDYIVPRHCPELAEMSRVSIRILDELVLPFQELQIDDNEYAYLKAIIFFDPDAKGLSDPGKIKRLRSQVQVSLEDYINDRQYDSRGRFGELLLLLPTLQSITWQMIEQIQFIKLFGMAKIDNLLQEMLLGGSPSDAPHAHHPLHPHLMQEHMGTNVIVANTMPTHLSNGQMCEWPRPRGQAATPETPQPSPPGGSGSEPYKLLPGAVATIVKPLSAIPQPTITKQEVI
E coli growth: inhibitors of Escherichia coli growth. hit rate 0.21% among 330,000. OD600, 23 h; hits give low values. OD600 absorbance (concentration not given with the values);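 active = OD600 absorbance below the run mean of sample wells minus 3.6 SD, in any replicate, cut at about 0.56 in these data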;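 note: stock transfer was 300 nL into about 60 µL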
rRNA inh HTS OD600: further read-out of rRNA inh HTS, marked with its call; OD600 change, %; measured here: OD600 growth;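 optical density of the mix in the first replicate; 0 = DMSO median and -100 = no signal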
rRNA inh HTS RFP: recorded beside rRNA inh HTS, whose call it bears; RFP signal change, %; measured here: RFP humanized mutant strains;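 first replicate; 0 = DMSO median and -100 = no signal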
* = called active by the depositor; i = inactive; ? = inconclusive; / = not tested or not shown; & = joins results of further samples. Some of the compounds tested; count on the stated rates, not on these rows.

Each structure is followed by: ALR inh, Vif A3G, FGF22 binding, rRNA inh HTS, rRNA inh HTS OD600, rRNA inh HTS RFP, MLL AF4-AF9 inh, HNF4A DNA FP, E coli growth
> CC(OC(=O)CCc1nc2ccccc2c(=O)[nH]1)C(=O)Nc1cccc(C(F)(F)F)c1 (configuration not stated)
  1.6, -3.9%, i, 2.9, -3.5, -2.3, -1.9, 3.4, 0.67
> CCc1nc2ccc(C(=O)Nc3ccc(NC(C)=O)cc3)cn2c1N(C)CCC(C)C
  /, /, i, -13.3, -1.8, -2.9, -3.3, 3.1, /
> N#CC(c1nc2ccccc2nc1OCCO)S(=O)(=O)c1ccccc1 (configuration not stated)
  -12.1, /, i, -5.5, -13.2, 8.0, -4.3, 2.8, 0.68
> CCOC(=O)C[N+](C)(C)CCOC1CC2CCC1(C)C2(C)C (configuration not stated)
  /, 5.9%, /, /, /, /, /, -3.1, 0.723
> COc1ccc(OC)c(CC(NC(C)=O)C(=O)NC2CCN(c3c(Cc4ccccc4)c(C)nc4ncnn34)CC2)c1 (configuration not stated)
  -3.6, 10.3%, /, /, /, /, /, 1.7, 0.712
> Cc1noc(C)c1NC(=O)N(C)C[C@@H]1Oc2ccc(NC(=O)Cc3cn(C)c4ccccc34)cc2CC(=O)N([C@@H](C)CO)C[C@H]1C
  /, /, i, 0.6, 1.4, -0.3, -0.2, /, /
> CCOc1nc(N(C)C)nc(-n2nnc(C(C)=O)c2C)n1
  -12.0, 14.2%, /, /, /, /, /, 0.9, 0.713
> CCOc1cc(OCC)cc(C(=O)N2CCC[C@H]2C(=O)N2CCC[C@H]2C(=O)N[C@@H](C)c2ccccc2)c1
  /, /, i, 1.7, -5.9, 1.7, 0.9, 1.7, /
> C[C@H]1CN([C@@H](C)CO)S(=O)(=O)c2ccc(Br)cc2O[C@H]1CN(C)C(=O)CN(C)C
  /, /, i, 5.3&4.9, 8.2&5.8, 0.1&0.0, -2.1&-2.5&-0.2, 5.6, /
> COc1cccc(C(=O)N2C[C@H]3[C@@H](c4ccccc42)[C@@H](CO)N3C(=O)c2ccccc2)c1
  /, /, i, -0.5, -3.3, -1.4, -1.2, /, /
> O=C(Nc1ccc(C2CC2(Cl)Cl)cc1)c1ccccc1Br (configuration not stated)
  1.2, 26.9%, i, -29.3, -57.1, -22.6, 0.4, 1.6, 0.666
> CCNc1nc(NCC)n2c(SCC(=O)Nc3ccccc3F)nnc2n1
  /, -5.0%, /, 4.3, 12.2, -1.0, -7.6, -3.7, 0.662
> COc1ccc(NC(=O)CCSc2ccc(C)cc2)cc1S(=O)(=O)Nc1ccccc1Cl
  -19.1, 19.1%, i, 0.2, 1.9, -1.8, 0.8, -0.9, 0.709
> CCCN(C)C[C@@H]1Oc2cc(-c3ccccc3)ccc2S(=O)(=O)N([C@@H](C)CO)C[C@@H]1C
  /, /, i, -1.4, 1.1, 0.1, 0.4, /, /
> O=c1c(Cc2ccccc2)c(O)ccn1CCc1cnc[nH]1
  31.1, /, i, -2.8, 7.0, 0.8, 0.9, -1.1, 0.697
> COc1ccc(CN(C)C[C@H]2Oc3ccc(NS(=O)(=O)c4ccc(C)cc4)cc3CC(=O)N([C@@H](C)CO)C[C@@H]2C)cc1
  /, /, i, -0.8, -4.5, 4.0, 0.1, /, /
> COc1ccccc1C1NC(=O)CCC1[N+](=O)[O-] (configuration not stated)
  -6.6, 1.2%, i, 7.2, 7.7, -1.1, -1.7, 3.0, 0.665
> CC(C)(C)c1csc(NC(=O)Cn2c(=O)oc3ccccc32)n1
  4.4, 2.5%, /, /, /, /, /, -0.3, 0.776
> O=C(NNC1CC(=O)N(c2ccc(Br)cc2)C1=O)c1cccs1 (configuration not stated)
  1.6, -2.4%, i, -0.7, 3.0, -3.7, -8.6, 3.6, 0.676
> CCOC(=O)c1ccccc1NC(=O)C1CCN(c2ncnc3sc(C)c(C)c23)CC1
  0.9, 8.7%, /, /, /, /, /, 4.9, 0.657
> O=C(CCC(=O)N1CCN(c2ccc(F)cc2)CC1)N1CCN(c2ccc(F)cc2)CC1
  49.8, /, i, -21.2*, -10.9*, 0.2*, -1.1, 2.1, 0.697
> Cc1cc(=O)[nH]c(/N=C(\N)Nc2ccc(Oc3ccccc3)cc2)n1
  -3.4, 17.3%, i, 8.8, 3.2, -4.1, -13.8, -1.6, /
> CCN(CC(=O)NCc1cccs1)C(=O)c1ccc(Cl)c(Cl)c1
  1.4, /, i, -5.0, -7.1, -0.8, 0.5, -0.6, 0.719
> Cc1c(C(=O)N2CCCCC2)c(S(=O)(=O)NCCc2ccc(S(N)(=O)=O)cc2)c(C)n1C
  1.8, -1.6%, i, 20.2, 26.0, 6.8, 1.0, 3.1, 0.695
> O=C(c1ccc2snnc2c1)N1CCN(c2ccccn2)CC1
  1.3, 19.7%, /, /, /, /, /, 0.4, 0.732
> Cc1nc(S(=O)(=O)N2CCOCC2)c(C#N)c(C)c1Cl
  3.3, 20.3%, /, /, /, /, /, 1.9, 0.726
> CCOC(=O)c1sc(=NC(=O)c2cc(OC)c(OC)c(OC)c2)n(C)c1C
  -8.5, -5.6%, /, /, /, /, /, 4.7, 0.657
> O=C(Nc1ccccc1)Nc1ncc(C(F)(F)F)cc1Cl
  /, 2.5%, i, /, /, /, -1.2, 2.1, /
> COc1ccccc1C(=O)NNC(=O)c1ccc(NC(=O)C(C)C)cc1
  /, -13.2%, i, 0.2, -5.9, -2.9, -1.2, -0.1, 0.699
> CCCC(=O)Nc1cc2c(cc1C(=O)c1ccccc1)OCCO2
  /, 1.4%, /, /, /, /, /, 0.2, 0.768
> CCOc1ccccc1-c1nc(-c2ccc(NC(=O)Cc3ccc(OC)cc3)cc2)no1
  -2.0, -3.9%&-19.2%, /, /, /, /, /, -0.6, 0.786
> CN1CCN(C(=O)CN(C2CCCCC2)S(=O)(=O)c2ccccc2)CC1
  /, /, i, 4.8, 13.1, -1.1, 0.2, -2.4, 0.685
> C=CCN(C(=O)c1csnn1)C(C(=O)NC1CCCC1)c1cccs1 (configuration not stated)
  -3.3, -6.8%, i, -0.5, -1.6, -2.4, 0.8, 2.0, 0.697
> CN(Cc1cnccn1)C(=O)CC1C(=O)NCCN1Cc1cccc(F)c1 (configuration not stated)
  -7.1, 4.2%, i, 14.4, 18.4, 0.6, -0.3, -1.0, 0.68
> Cc1ccc(-c2ccc(SCC(=O)N3CCN(c4ccccc4)CC3)nn2)cc1
  -0.8, /, /, /, /, /, /, 0.8, 0.722
> CCOC(=O)c1ccc(NC(=O)CC2COc3ccccc3O2)cc1 (configuration not stated)
  -3.5, 2.4%, /, /, /, /, /, 5.4, 0.73
> O=C(NNS(=O)(=O)c1ccccc1)c1cccnc1
  37.1, ?, i, 8.9, 4.4, -3.0, -10.4, -0.9, 0.712
> CC(=O)OCCCCON1C(=O)c2ccccc2C1=O
  -3.4, 6.7%, /, /, /, /, /, 1.1, 0.698
> C[C@H](CO)N1C[C@H](C)[C@@H](CN(C)S(=O)(=O)c2cn(C)cn2)Oc2ccc(NC(=O)C3CC3)cc2CC1=O
  /, /, i, -1.3, 1.3, -2.6, -0.8, /, /
> Cc1ccc(NCC(O)C(O)C(O)CO)cc1C (configuration not stated)
  48.9, 7.0%, /, /, /, /, /, 6.3, 0.727
> O=S(=O)(c1ccccc1F)N1CC[C@@H]2[C@H]1c1cc(-c3ccccc3F)ccc1N[C@@H]2CO
  /, /, i, -4.4, -41.0, 34.5, -0.2, /, /
> CC1CCN(S(=O)(=O)c2ccc(Oc3ccc([N+](=O)[O-])cc3)cc2)CC1
  -7.0, 0.2%, /, /, /, /, /, -0.2, 0.689
> O=C(CSc1ccc([N+](=O)[O-])cn1)Nc1ccc2c(c1)OCO2
  -4.8, /, i, 13.8, 0.6, -1.2, 3.4, -3.6, 0.673
> O=[N+]([O-])c1cccc(CNCc2ccccc2)c1
  /, 2.2%, i, 1.9, -8.0, -3.4, 0.6, 0.5, 0.691
> Cc1ccc(C)c(S(=O)(=O)N2CCN(C(=O)c3ccc(-n4cncn4)c([N+](=O)[O-])c3)CC2)c1
  -21.1, 6.2%, i, 4.2, 8.3, 0.3, -5.8, 1.7, 0.702
> Cc1ccc(C(=O)Nc2ccc3ccccc3c2)cc1
  5.4, 2.0%, i, 6.2, 7.4, -0.7, -0.2, 1.2, 0.734
> CCC(=O)N1[C@@H]2CN(S(=O)(=O)c3ccccc3)c3ccccc3[C@@H]2[C@@H]1CO
  /, /, i, 4.7, 4.8, 1.9, -0.6, /, /
> COCCN(C(=O)Cn1nnc2ccccc21)C(C(=O)NC1CCCC1)c1ccc(OC)cc1OC (configuration not stated)
  -11.3, /, /, /, /, /, /, -0.1, 0.742
> CCCc1cc(=O)oc2cc(OCC(=O)NCc3cccs3)ccc12
  -8.2, /, i, /, /, /, 0.6, 4.6, 0.688
> CCC(=O)C1=C(N2CCCC2)CC(C)(C)CC1=O
  -3.7, 23.6%, /, /, /, /, /, -5.8, 0.773
> Cc1ccc(-c2cc(C(=O)OCC(=O)N(C)C3CCS(=O)(=O)C3)c3ccccc3n2)c(C)c1 (configuration not stated)
  23.8, 5.4%, i, -19.7, -25.4, 8.1, 4.6, 2.6, 0.709
> O=C(CSc1nc2ccccc2[nH]1)N1CCCCC1
  -4.9, 4.2%, /, /, /, /, /, -0.9, 0.704
> CC(=O)Nc1ccc(Sc2ccccc2C(=O)Nc2ccc(F)cc2)cn1
  -4.6, -0.5%, i, 7.8, -6.9, -2.3, 0.0, -0.6, 0.748
> Cc1ccc2cc(CN(CC3CCCO3)C(=S)Nc3ccccc3)c(=O)[nH]c2c1 (configuration not stated)
  -1.0, 24.9%, i, 5.4, 1.5, 1.2, 0.8, 3.7, 0.72
> N#Cc1ccc(C23CC4CC(CC(C4)C2)C3)[nH]c1=O
  0.8, 3.1%, /, /, /, /, /, -0.9, 0.702
> COc1ccc(CCN=C(N)NS(=O)(=O)c2ccccc2)cc1OC
  1.2, -4.1%, i, /, /, /, -2.9, 6.0, 0.681
> O=C(COc1cccc(Cl)c1)Nc1cc(S(=O)(=O)N2CCOCC2)ccc1N1CCOCC1
  -4.1, /, i, -13.6, -10.4, 8.8, -10.1, 0.5, 0.659
> CC(=O)N1CCCCN2[C@H](CO)[C@H](c3ccc(C#Cc4ccccc4F)cc3)[C@H]2C1
  /, /, i, -1.4, 8.9, 0.9, 1.4, /, /
> CCOC(=O)C1=C(C)N=c2s/c(=C\c3cc(OC)c(OC)c(OC)c3)c(=O)n2C1/C=C/c1ccccc1 (configuration not stated)
  /, 24.6%, i, /, /, /, 7.1, 3.3, /
> C[C@@H]1CN([C@H](C)CO)C(=O)c2c(c3ccccc3n2C)-c2ccccc2CO[C@@H]1CN(C)S(=O)(=O)Cc1ccccc1
  /, /, i, 2.6, 5.9, -4.6, 5.3, /, /
> COc1ccccc1-c1nnc(NC(=O)c2ccc(S(=O)(=O)N(C)Cc3ccccc3)cc2)o1
  0.3, -0.7%, /, /, /, /, /, /, 0.781
> Cc1ccc(C(C)C)c(OCC(=O)NN=C2CCCC2)c1
  9.5, -12.7%, i, -6.1, -0.9, -5.6, -1.4, -4.8, 0.653

Three entries already listed, ordered by length of the SMILES, lowest first.
Each structure is followed by: ALR inh, Vif A3G, FGF22 binding, rRNA inh HTS, rRNA inh HTS OD600, rRNA inh HTS RFP, MLL AF4-AF9 inh, HNF4A DNA FP, E coli growth
> CC(C)(C)c1csc(NC(=O)Cn2c(=O)oc3ccccc32)n1
  4.4, 2.5%, /, /, /, /, /, -0.3, 0.776
> CCOC(=O)c1ccccc1NC(=O)C1CCN(c2ncnc3sc(C)c(C)c23)CC1
  0.9, 8.7%, /, /, /, /, /, 4.9, 0.657
> COCCN(C(=O)Cn1nnc2ccccc21)C(C(=O)NC1CCCC1)c1ccc(OC)cc1OC (configuration not stated)
  -11.3, /, /, /, /, /, /, -0.1, 0.742

High-throughput results from PubChem BioAssay.
